Menin-MLL FL inh = qHTS Assay for Inhibitors Targeting the Menin-MLL Interaction in MLL Related Leukemias: Competition With Fluorescein Labeled MLL-derived Peptide. AID 1766, 2009. 290,000 tested, under 10 active. FP activity change, % at 61.4 µM. Fluorescence polarization, fluorescein-MLL peptide displacement from menin; inconclusive = falling polarisation curve, or a change in total fluorescence; inactive = total fluorescence flat and polarisation flat or rising; no compound was filed as active; the % refers to the polarisation; negative = inhibition;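 note: % of control where 0% means no effect; inhibitors lower the polarisation; unlabelled MLL peptide was the positive control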
gsp agonist = qHTS for Agonist of gsp, the Etiologic Mutation Responsible for Fibrous Dysplasia/McCune-Albright Syndrome: qHTS; gsp mutant cells, cAMP HTRF, 30 min; control for the full effect not named in the record; Potency, µM (titrated, usually from 76.9 µM), for inactives: top-dose activation (cAMP increase), most hits filed as activators; 0.13% of 340,000 active; active = well fitted activation curve with a large enough effect; inconclusive = small, poorly fitted or top-dose-only effect, or another doubt; inactive = no such curve, though single readings can be large or run the other way; cell line not stated here;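 note: phosphodiesterase inhibitor Ro 20-1724 added with compounds to block cAMP breakdown; potency is the fitted concentration of half-maximal effect; nearly all actives have a fitted effect of over 60% in size; about a fifth of the inactives were tested at one dose only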
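Cells stably selected in G418 were plated at 2000/well, grown 16-24 hr, then given compounds in DMSO with the PDE inhibitor […] (300 uM solution added) for 30 min at 37C; cAMP was read by HTRF.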
TRPML1 blocker = qHTS for Inhibitors of the Human Mucolipin Transient Receptor Potential 1 (TRPML1); Mucolipin-1 (Homo sapiens), Q9GZU1; AID 624415, 2012; activity change, negative = inhibition, % (no concentration beside the values); TRPML1-inducible cells, Ca2+ dye fluorescence, FDSS; active compounds read low; inhibition of EC80 agonist-evoked calcium signal; 0.02% of 390,000 active; in the data active means activity change below about -50%; inconclusive means about -30% to -50%; inactive means above about -30%;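 note: stimulus is agonist 54-4 at its EC80 concentration; % is set by controls: 0 for no effect and ±100 for the full control effect; compound concentration not given in the record; the text of the record puts the active cut at -80%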
Target sequence (Q9GZU1 whole entry, looked up): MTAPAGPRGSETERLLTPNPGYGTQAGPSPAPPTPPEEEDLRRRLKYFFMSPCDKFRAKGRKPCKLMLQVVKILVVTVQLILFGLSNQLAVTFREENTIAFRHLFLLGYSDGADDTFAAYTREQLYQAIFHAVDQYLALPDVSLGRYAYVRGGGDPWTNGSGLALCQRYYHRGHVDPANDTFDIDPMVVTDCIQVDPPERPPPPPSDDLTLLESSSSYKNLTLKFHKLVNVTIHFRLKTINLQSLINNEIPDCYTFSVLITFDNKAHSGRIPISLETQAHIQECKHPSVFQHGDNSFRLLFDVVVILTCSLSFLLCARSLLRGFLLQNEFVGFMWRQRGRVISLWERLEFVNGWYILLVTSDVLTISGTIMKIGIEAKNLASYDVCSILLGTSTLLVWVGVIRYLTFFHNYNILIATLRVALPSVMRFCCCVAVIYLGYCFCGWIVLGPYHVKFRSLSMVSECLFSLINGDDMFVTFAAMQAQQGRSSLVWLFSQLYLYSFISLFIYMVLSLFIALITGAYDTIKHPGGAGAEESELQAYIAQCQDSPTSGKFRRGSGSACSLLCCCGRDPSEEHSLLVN
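TRPML1-DL cells, Tet-induced overnight (~16 h, 37 °C) at 1,500 cells/well, were loaded with Ca8 no-wash dye plus quencher for 45-90 min at room temperature. Compounds were pinned during FDSS kinetic reading; agonist 54-4 at EC80 (4 uM final) then added.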
ClpP mod = qHTS Assay for Activators of ClpP | ATP-dependent Clp protease proteolytic subunit (Bacillus subtilis (strain 168)), P80244 | purified B. subtilis ClpP, FRET peptide cleavage, 20 min | Potency, µM (highest dose often 57.5 µM), for inactives: at the top dose activity change, negative = active | 1.9% of 340,000 active; active = well fitted falling curve with a large enough effect; inconclusive = small, poorly fitted or top-dose-only effect; inactive = no such curve, though single readings can be large or run the other way; note: potency is the fitted concentration of half-maximal effect; the source files actives as falling curves though it sought activators and does not explain the sign; nearly all actives have a fitted effect of over 65% in size; many hits overshoot -100%
Target sequence (P80244 whole entry, looked up): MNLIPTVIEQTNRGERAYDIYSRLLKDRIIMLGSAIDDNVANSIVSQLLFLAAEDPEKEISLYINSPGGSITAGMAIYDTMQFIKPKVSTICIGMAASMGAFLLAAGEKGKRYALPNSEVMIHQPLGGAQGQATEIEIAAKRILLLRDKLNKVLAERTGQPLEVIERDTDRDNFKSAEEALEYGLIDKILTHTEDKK
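Purified B. subtilis ClpP, 10 microg/mL final in Tris/HCl pH8 with KCl, BSA, glycerol and Tween-20, cleaved an Abz/nitrotyrosine-quenched decapeptide. Fluorescence (ex 320, em 430) was read at 0 and 20 min at room temperature. Delta was normalized to 5.8 microM ADEP and DMSO/no-enzyme controls.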
gsp antag = qHTS for Antagonists of gsp, the Etiologic Mutation Responsible for Fibrous Dysplasia/McCune-Albright Syndrome: qHTS | Potency, µM (titrated, usually from 76.9 µM), without a hit: at the highest dose activity change, negative = inhibition, usual class: inhibitors | 0.4% of 340,000 active | gsp-mutant cells, cAMP HTRF, 30 min; control for the full effect not named in the record; active = falling curve of any shape with a large fitted effect; inconclusive = falling curve, mostly with a smaller effect; inactive = flat or rising curve; cell line not stated here;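 note: intracellular cAMP measured with PDE inhibitor Ro 20-1724 present during compound exposure; potency is the fitted concentration of half-maximal effect; % is set by controls: 0 for no effect and ±100 for the full control effect; nearly all actives have a fitted effect of over 65% in size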
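HTRF cAMP read-out (cAMP-d2 plus anti-cAMP antibody-K in lysis buffer, 30 min RT). Before lysis, cells are exposed to compounds with […] for 30 min at 37C in DPBS containing Ca/Mg, BSA and Tween 20.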
Sfp inh = qHTS Assay for Inhibitors of Bacillus subtilis Sfp phosphopantetheinyl transferase (PPTase). Biochemical Sfp PPTase activity, qHTS. AID 1490, 2009. Potency, µM, inactives show max response, negative = inhibition, hits mostly inhibitors. 4'-phosphopantetheinyl transferase ffp (Bacillus subtilis), Q9F4F7. 3.5% of 310,000 active; active = well fitted inhibition curve with a large enough effect; inconclusive = small, poorly fitted or top-dose-only effect, or another doubt; inactive = no such curve, though single readings can be large or run the other way;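 note: the enzyme is Sfp with the accession as filed and its product quenches rhodamine fluorescence; potency is the fitted concentration of half-maximal effect; 0% = enzyme reaction without inhibitor and -100% = no enzyme wells; top concentration of the series not given in the record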
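Sfp 15 nM + cpd, 15 min RT; start w/ rhodamine-CoA 5 uM, BHQ-2-YbbR 12.5 uM (final); 50 mM Hepes pH 7.6, 10 mM MgCl2, 0.01% NP-40, 0.01% BSA; read 525/598 nm at 0 and 30 min.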
TRPV1 potentiator = HTS Assay for Compounds that Act as Potentiators of the Vanilloid Receptor 1; Transient receptor potential cation channel subfamily V member 1 (Homo sapiens), Q8NER1; TRPV1-expressing cells, Fluo-8 calcium influx, capsaicin EC20 potentiation; host cell line not named in the record; control for the full effect not named in the record; potentiation, % at 8.33 µM; 0.02% of 320,000 active; AID 540277, 2011; active means potentiation above 80%; inconclusive means 30% to 80%; inactive means below 30%; note: 0% is about no effect
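Cells expressing TRPV1 were dye-loaded with Fluo-8 and read kinetically: 10 s baseline, 3 min after compound (agonist portion), then 2 min after EC20 capsaicin (allosteric enhancer portion). Calcium-bound dye fluorescence at 480/520 nm.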
Active calls of the source: *; i = inactive; ? = inconclusive; · = no result given; & = joins results of further samples; [ ] = another dose, or the depositor's remark.

SMILES	Menin-MLL FL inh	gsp agonist	TRPML1 blocker	ClpP mod	gsp antag	Sfp inh	TRPV1 potentiator
O=C(O)CN=C(NS(=O)(=O)c1ccccc1)c1ccccc1	-0.8	?	-9.7	-1.6%	-2.9%	11.8%	8.9
O=[N+]([O-])c1cccc(-c2nc(N3CCOCC3)c3ccccc3n2)c1	-4.7	·	·	·	·	-8.5%	-1.6
Cc1cc(C(=O)Nc2cccc3ccccc23)n(-c2ccccc2)n1	-2.3	0.4%	15.1	·	-2.7%	-11.1%	1.8
C[C@@H](NC(=O)c1nc[nH]c1C(=O)N1CCN(C(=O)OC(C)(C)C)CC1)c1ccccc1	·	·	-0.1	-0.7%	0.5%	·	-13.8
Cc1cc(C)c2nc(N3CCC(C(=O)NCCN4CCOCC4)CC3)sc2c1	3.1	?	0.3	-0.3%	12.3%	0.6%	-10.5
O=C(COC(=O)c1cnc(Cl)c(Cl)c1)NCc1ccc2c(c1)OCO2	7.1	13.7%[15.4 µM]	-0.8	-0.5%	-15.1%	0.1%	-13.1
CCn1cnc2cc(NCc3ccc(Br)cc3)ccc21	0.7	-9.2%[15.4 µM]	-5.4	·	-7.1%	-1.1%	15.8
O=C(O)C1=CC[C@@H](c2ccc(Cl)cc2)N(S(=O)(=O)c2ccc(Cl)cc2)[C@H]1c1cccc(Cl)c1	·	-20.0%	-12.2	-1.6%	-8.6%	·	12.1
Cc1cc(N2C(=O)c3ccc(C(=O)Nc4ccc(CC(=O)O)cc4)cc3C2=O)no1	0.1	?	27.0	0.0%	6.7%	5.2%	-10.5
CC1CC(O)(Cc2ccccc2)C(C)CN1C (stereo not given)	1.3	8.7%	17.2	-0.5%	14.9%	12.2%	-0.8
COC(=O)[C@@H](NC(=O)NCc1ccccc1Cl)C(C)C	2.7	-36.1%[inhibitor]	15.7	0.1%	1.9%	12.7%	-2.6
COc1nc(-c2ccccc2)ccc1-c1noc(-c2cccs2)n1	·	10.8%	8.2	20µM*	10.2%	·	·
CCNC(=S)N/N=C/c1ccc(OCCOc2ccccc2C)cc1	4.9	-20.8%	-6.6	-0.6%	5.9%	23.6%	-0.1
CC(=O)Nc1ccc2nc(NC(=O)COc3ccccc3)sc2c1	-3.4	19.8%[15.4 µM]	7.0	0.7%	1.5%	-4.4%	0.6
CCCCCCCNC(=O)CC(NS(=O)(=O)c1ccc(NC(C)=O)cc1)C(C)C (stereo not given)	0.7	-28.5%	-17.3	-17.4%	0.1%	4.1%	?
C/C(=N\NC(=O)C1CC1(C)c1ccccc1)c1ccco1 (stereo not given)	-0.8	7.7%[15.4 µM]	2.7	-1.7%	-11.3%	7.6%	-13.9
CCc1cc2cc(OC)ccc2nc1SCC(=O)Nc1cc(OC)c(OC)cc1C(=O)O	-0.9	?	3.1	-8.5%	-16.3%	-7.1%	14.6
COc1ccc(S(=O)(=O)N2CCCC(C(=O)NCc3ccccn3)C2)cc1Cl (stereo not given)	-1.1	-6.5%	-10.1	-1.0%	2.0%	22.8%	-1.2
CC(Sc1ccc(S(=O)(=O)N2CCN(C)CC2)cn1)C(=O)NC1CCCC(C)C1C (stereo not given)	·	-21.5%	-5.2	-0.8%	·	·	·
C/C=C(/C)C(=O)O[C@@H]1c2c(ccc3ccc(=O)oc23)O[C@@H]1C(C)(C)OC(C)=O	2.2	1.6%	5.8	4.4%	-9.6%	22.3%	-5.9
Cc1ccc(C)c(OCCCC(=O)Nc2ccccc2C(N)=O)c1	7.7	17.7%	-4.1	-4.4%	50.6%[activator]	28.0%	7.8
CC(C(=O)N1CCCC1)N1CCN(S(=O)(=O)c2ccccc2)CC1 (stereo not given)	·	-20.8%	3.3	1.3%	0.5%	·	·
Nc1cc2c(cc1Cl)-c1ccccc1C2=NO	·	7.5%	-10.1	-5.0%	0.7%	·	·
COc1ccc(CCNC(=O)c2ccc(CS(=O)(=O)Cc3cccc(C)c3)o2)cc1OC	·	10.8%	-10.9&-25.4	-2.9%&0.2%	?	10.9%	-6.4
O=C1CCCN2N=C(SCC(=O)N3CCCCC3)SC2=N1	-1.1	-26.0%	-3.7	0.9%	5.0%	2.8%	9.6
COc1cc(/C=C2\SC(=S)N(NC(=O)c3ccccc3OC)C2=O)ccc1O	?	-26.7%	-12.2	·	-14.9%	174.6%[activator]	11.0
Cn1c(SCc2ccccc2C#N)nc2ccccc2c1=O	12.8	?	-1.0	·	-14.3%	-6.5%	-7.2
O=C(Nc1ccccc1)c1ccc(S(=O)(=O)NCc2cccnc2)cc1	1.8	-7.9%[15.4 µM]	-7.5	-0.2%	-3.5%	13.3%	-3.3
CC(C)c1nc2ccc(Br)cn2c1NC1CCCC1	0.7	3.5%	-3.1	-1.4%	9.9%	1.2%	-10.8
CC1CCN(CCC(=O)Nc2nccs2)CC1	3.5	-1.1%	-3.2	·	10.8%	10.3%	26.6
CC1(C)CC2(CCO1)OC(=O)CC2C(=O)Nc1cccc2ccccc12 (stereo not given)	-1.4	4.7%	8.2	1.2%	-2.2%	13.9%	-5.3
CCNc1cc(Nc2c(C)n(C)n(-c3ccccc3)c2=O)c([N+](=O)[O-])c2nonc12	-0.4	38.3%[15.4 µM]	-22.1	·	-0.2%	12.0%	3.6
CCN1C(=O)CC(NC2CCN(C(=O)c3ccc(F)cc3)CC2)C1=O (stereo not given)	·	-11.7%[15.4 µM]	-4.6	-0.6%	9.8%	-0.8%	0.8
COC(=O)c1ccccc1NC(=O)CSc1nnc(-c2cccc(NC(C)=O)c2)n1C	1.5	-22.0%	1.5	-10.7%	-2.9%	3.6%	3.6
CSc1ncccc1C(=O)OCC(=O)Nc1ccc(C)c(S(=O)(=O)N2CCOCC2)c1	·	-4.6%[15.4 µM]	3.5	1.6%	-12.9%	·	·
CCCCSCCCNC(=O)Nc1cccc(OC)c1	-0.9	-7.9%	-3.1	-1.5%	-15.2%	4.1%	-8.3
Cc1c(C(N)=O)c(-c2ccccc2)nn1-c1ccccc1	5.5	?	15.8	-2.0%	9.4%	0.7%	1.5
CCCN=C1N(CC)C[C@@H]2[C@@H]3C(=O)N(C)C(=O)[C@@H]3[C@](CC)(C(=O)OC)N12	·	·	16.9	-0.5%	10.1%	·	·
COc1cc(NC(=S)N2CCCC(C)C2)cc(OC)c1OC (stereo not given)	0.6	-50.7%[inhibitor]	-8.9	1.2%	6.2%	20µM*	1.7
CC1(C)CC(=O)C=C(N2CCNCC2)C1	3.7	2.3%	-16.8	-2.5%	7.0%	23.1%	8.5
Cc1csc2ncnc(N3CCN(C(=S)Nc4ccc(C(F)(F)F)cc4)CC3)c12	-0.8	25.5%	-10.3	-0.3%	?	16.4%	-11.5
CCOC(=O)c1cnc(C(C)(C)C)[nH]c1=O	-5.6	3.5%	-23.7	28.4%	-0.1%	1.1%	2.6
N#C/C(=C/c1ccc2c(c1)OCO2)C(=O)Nc1ccc(O)cc1	-2.4	-6.5%	3.4	-0.8%	16.4%	-11.4%	-2.7
CCOC(=O)C1=C(C)N=c2s/c(=C/c3cccc(OCC(=O)O)c3)c(=O)n2C1c1ccc(F)cc1 (stereo not given)	?	·	·	·	·	-27.5%	-4.9
CCOc1cc(C#N)c(NC(=O)c2ccnn2C)cc1OCC	0.1	-0.6%	11.3	-7.0%	-3.9%	-2.0%	-8.8
Cc1c(Cl)cccc1NC(=O)CNc1cccc(C(F)(F)F)c1	4.6	-47.3%[inhibitor]	-12.0	1.0%	4.6%	21.1%	-5.7
Cn1nnnc1SCC(=O)Nc1ccccc1-c1ccccc1	3.2	22.6%	1.8	-4.5%	-8.1%[15.4 µM]	25.7%	2.7
C/C=C/c1ccc(OCCn2nnc3ccccc32)c(OC)c1	4.0	3.6%	-8.7	-0.6%	-13.2%	8.2%	-2.9
O=C(O)c1ccc2nc(C(F)(F)F)[nH]c2c1	5.6	9.1%	-10.0	-0.8%	-0.9%	-2.3%	8.8
N#Cc1c2n(c3c(=O)[nH]cnc13)CCCC2	-1.1	?	-24.0	1.6%	18.6%	-2.0%	-4.6
CCCNC(=O)C(Cc1cccc(Cl)c1)NC(=O)c1ccc(C#N)cc1 (stereo not given)	·	-1.8%	10.9	0.5%	-2.9%	·	1.3
Cc1ccc2nc(Cl)c(CN(Cc3cccs3)C(=O)C3CC3)cc2c1	1.0	?	3.3	-2.9%	-5.1%	-10.2%	-11.6
Cc1nn(-c2ccccc2)c(C)c1-c1nnc(-c2c(C)nn(-c3ccccc3)c2C)o1	4.7	-20.4%[15.4 µM]	5.7	1.1%	-3.9%	-22.9%	1.0
CC1=C(C(=O)Nc2ccccn2)C(c2ccc(Br)cc2)n2ncnc2N1 (stereo not given)	-1.6	-37.0%[inhibitor]	-7.8	5.7%	-12.0%	18.2%	-2.5
COc1ccc2c3c(c(=O)oc2c1)C1O[C@](CCCCN2C(=O)c4ccccc4C2=O)(Cc2c1ccc1ccccc21)O3	4.4[11.7 µM]	·	·	·	·	12.6%	i
CCCCn1c(N)c(N(CCOC)C(=O)CN2C(=O)NC3(CC(C)CC(C)(C)C3)C2=O)c(=O)[nH]c1=O (stereo not given)	·	5.5%	23.3	-4.6%	10.5%	·	·

Source: PubChem BioAssay
